Bioassay records as filed in PubChem.
Vif TR-FRET: inhibitors of Vif binding to APOBEC3G peptide, primary screen, biochemical, TR-FRET, GST-Vif 1-94, biotin-A3G peptide, dose response retest (AID 1117319). actives 0.57% (n = 260,000). TR-FRET GST-Vif / biotin-A3G peptide binding; higher % means a stronger effect; test concentration not given here; strong numbers were not always called active. one-dose inhibition, %; IC50 in µM for titrated hits;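 active means above the screen mean plus three standard deviations and confirmed in dose response; inconclusive means results disagree or hit not tested in dose response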;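 further: Vif residues 1-94 fused to GST binding biotinylated APOBEC3G peptide 110-148; 0% = full assay without inhibitor and 100% = GST in place of GST-Vif; retest series ran down from 100 µM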
FGF22 binding: binders of human FGF22 protein, primary screen, FGF22 synaptogenesis inhibitor project, biophysical, thermal shift, single point; actives 1.5% (n = 340,000); calls only at 9.99 µM; recombinant FGF22 thermal shift, SYPRO orange fluorescence; percent of sucrose octasulfate shift, DMSO zero; AID 651658, 2012; Fibroblast growth factor 22 (Homo sapiens), Q9HCT0;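 active means melting point raised past a set limit in the mean and every replicate; inconclusive means no clear call; three in four hits are not shown here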
Target sequence (Q9HCT0 whole entry, looked up): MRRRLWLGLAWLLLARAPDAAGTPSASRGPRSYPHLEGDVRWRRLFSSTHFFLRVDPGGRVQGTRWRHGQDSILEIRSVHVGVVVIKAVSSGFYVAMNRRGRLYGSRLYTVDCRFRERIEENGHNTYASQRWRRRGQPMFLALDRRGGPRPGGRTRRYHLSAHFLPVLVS
HNF4A DNA FP: change in binding of human HNF4A to DNA, primary screen, biochemical, fluorescence polarization, FITC-DNA. activity change, % at 10 µM. Hepatocyte nuclear factor 4-alpha (Homo sapiens), P41235. AID 1224865, 2016. 1 h. actives 0.3% (n = 360,000); in the data active means activity change above about 30%, passing the limit was not always enough;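 further: controls were the assay level and a saturating level of protein; the project sought stronger binding though the title names inhibitors; some compounds called inactive have numbers as strong as hits; positive values seem to mean higher polarization but the record does not say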
Target sequence (P41235 whole entry, looked up): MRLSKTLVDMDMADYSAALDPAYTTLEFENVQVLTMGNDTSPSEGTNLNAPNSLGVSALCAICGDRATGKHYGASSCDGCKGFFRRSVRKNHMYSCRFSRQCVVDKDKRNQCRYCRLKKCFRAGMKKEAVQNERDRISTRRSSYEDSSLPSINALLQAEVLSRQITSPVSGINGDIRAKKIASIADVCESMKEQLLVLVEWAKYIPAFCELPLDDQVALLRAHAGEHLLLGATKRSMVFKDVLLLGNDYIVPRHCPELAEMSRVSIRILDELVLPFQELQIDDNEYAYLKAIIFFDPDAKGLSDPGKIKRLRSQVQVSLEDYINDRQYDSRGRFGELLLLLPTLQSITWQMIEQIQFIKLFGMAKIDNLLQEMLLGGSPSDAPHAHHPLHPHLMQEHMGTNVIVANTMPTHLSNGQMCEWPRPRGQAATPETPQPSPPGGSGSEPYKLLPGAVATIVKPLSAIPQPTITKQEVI
E coli growth: E. coli growth inhibition, primary screen, OD600 | OD600 absorbance (test concentration not listed) | AID 1053175, 2014 | actives 0.21% (n = 330,000) | Escherichia coli growth, 23 h; stronger effect = lower value;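 active means OD600 absorbance below the run mean of sample wells minus 3.6 SD, in any replicate, cut at about 0.56 in these data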;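 further: stock transfer was 300 nL into about 60 µL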
MLL AF4-AF9 inh: inhibitors of AF4 peptide binding to AF9, primary screen, biochemical, AlphaScreen, biotin-AF4 peptide, FLAG-AF9, single point; Protein AF-9 (Homo sapiens), P42568; inhibition, % at 10 µM; actives 0.47% (n = 350,000); AID 651704, 2012;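 active means every replicate reaching a set inhibition limit, whatever the replicate mean, cut at about 25% in these data; inconclusive means mean inhibition reaches that limit but some replicates miss it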;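 further: 0% = plate neutral control median and 100% = total signal loss; the record names both 10 and 1 µM as test concentration; the first replicate is given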
ALR H2O2 inh: inhibitors of human ALR sulfhydryl oxidase, primary screen, biochemical, H2O2 detection, HRP-luminol luminescence, single point; FAD-linked sulfhydryl oxidase ALR (Homo sapiens), P55789; purified ALR, DTT oxidation; inhibition, % (concentration not given with the values); actives 3.8% (n = 290,000); AID 485317, 2010;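 active means mean and each replicate at 75% or more; inconclusive means only one of the two met; inactive means neither met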;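 further: stock transfer was 7.5 nL into about 7.5 µL; 0% = neutral wells and 100% = wells with inactivated enzyme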
Target sequence (P55789 whole entry, looked up): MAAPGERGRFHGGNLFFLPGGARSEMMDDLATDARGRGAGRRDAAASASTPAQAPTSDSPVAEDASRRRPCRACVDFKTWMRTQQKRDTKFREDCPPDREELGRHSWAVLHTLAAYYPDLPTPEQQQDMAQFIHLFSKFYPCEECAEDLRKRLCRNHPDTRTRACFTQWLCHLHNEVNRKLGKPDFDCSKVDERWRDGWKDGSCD
Ecoli rRNA inh: reduced GFP signal of wild-type E. coli, primary screen, bacterial rRNA inhibitor project, GFP/RFP fluorescence, OD600, single point; GFP signal change (wild-type ribosome), % (concentration not given with the values); actives 1.6% (n = 350,000); E. coli WT GFP vs humanized-ribosome RFP mutants, 24 h; stronger effect = lower value; DMSO median 0, no signal -100;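 active means significant combined selectivity score with lowered wild-type GFP, culture density cut under 30%, mutant RFP and density less affected; inactive means any of these conditions unmet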; further: one replicate is shown; some compounds called inactive have numbers as strong as hits
Ecoli rRNA inh OD600: further read-out of Ecoli rRNA inh, marked with its call; OD600 change, %; measured here: OD600 growth;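 optical density of the mix in the first replicate; 0 = DMSO median and -100 = no signal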
Ecoli rRNA inh RFP: further read-out of Ecoli rRNA inh, marked with its call; RFP signal change, %; measured here: RFP humanized mutant strains;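 first replicate; 0 = DMSO median and -100 = no signal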
An asterisk follows results filed as active; i = inactive; ? = inconclusive; . = not tested or not shown. Only part of the results is shown. The share of hits here may be higher or lower than overall.

SMILES	Vif TR-FRET	FGF22 binding	HNF4A DNA FP	E coli growth	MLL AF4-AF9 inh	ALR H2O2 inh	Ecoli rRNA inh	Ecoli rRNA inh OD600	Ecoli rRNA inh RFP
Cc1ccc(C(=O)O/N=C(\N)c2cccnc2)cc1[N+](=O)[O-]	-2%	i	-2.0	0.7	3.6	.	-14	4	-3.4
COc1ccccc1C(=O)NC(CCSC)C(=O)N1CCN(C/C=C/c2ccccc2)CC1 (centres undefined)	-1%	i	1.4	0.71	-4.6	-16	-13	-20	6.1
CC(C)(C)c1cc(CN2CCN(CCO)CC2)cc(C(C)(C)C)c1O	2%	.	0.8	0.68	.	0	.	.	.
CC(=O)Nc1cccc(NC(=O)CSc2nc(=O)n(CCCN3CCOCC3)c3c2CCC3)c1	8%	i	0.2	0.65	0.6	98*	10	9	1.4
O=C(CSc1nc2c(sc3ccccc32)c(=O)n1CCCN1CCCC1)NCc1ccccc1	-33%	i	0.4	0.74	4.4	-9	-13	-1	28
Cc1nn(C(C)C(=O)NCc2ccccc2F)c(=O)c2nn(-c3ccccc3)c(C)c12 (centres undefined)	.	i	-0.1	0.7	-2.1	.	4	2	-1.9
CCCCSc1ccc(NC(=O)c2cccnc2)cc1	2%	.	0.9	0.68	.	-13	.	.	.
Cc1ccc(OCC(=O)N(C)CC(=O)Nc2ccc(F)c(F)c2F)cc1	-1%	i	-5.6	0.65	-3.7	-5	3	11	0.4
CCN1CCCc2cc(CN(CCN3CCOCC3)C(=S)Nc3cc(F)cc(F)c3)ccc21	-15%	i	7.9	0.71	2.5	94*	21	6	0.8
S=c1[nH]nc(-c2cc(-c3ccco3)[nH]n2)n1-c1ccccc1Cl	?	.	-9.4	0.71	.	35	.	.	.
CCOC(=O)C1CCN(C(c2cccc(F)c2)c2sc3nc(C)nn3c2O)CC1 (centres undefined)	-2%	i	1.6	0.8	12	.	1	-8	-0.9
C[C@H]1CN([C@@H](C)CO)C(=O)c2cccc(NC(=O)C3CCOCC3)c2O[C@H]1CN(C)Cc1ccc2c(c1)OCO2	.	i	.	.	-1.0	.	4	8	-1.3
COc1ccc(C2CC(=O)Oc3c(C(CCN4CCOCC4)c4cc(OC)c(OC)c(OC)c4)c(OC)cc(OC)c32)cc1 (centres undefined)	16%	i	-3.1	0.7	18	-47	-8	3	12
Cc1c([N+](=O)[O-])cc(C(=O)Oc2cccc(C(=S)N3CCOCC3)c2)cc1[N+](=O)[O-]	25%	.	3.4	0.7	2.5	-5	-7	-1	-6.2
CC1(C(=O)O)CCC(C(=O)N2CCOCC2)C1(C)C (centres undefined)	-1%	.	-0.1	0.72	.	-2	.	.	.
CCS(=O)(=O)Nc1ccc2c(c1)C(=O)N(C)C[C@@H](OC)[C@H](C)CN(CCC(F)(F)F)[C@@H](C)CO2	.	i	.	.	-2.2	.	-2	-4	-1.3
O=C(COC(=O)c1ccccn1)Nc1nccs1	20%	.	0.8	0.7	.	-15	.	.	.
Cc1ccc(-c2cnc3c(c2)C(=O)N([C@@H](C)CO)C[C@@H](C)[C@H](CN(C)C(=O)Cc2cccnc2)O3)cc1	.	i	.	.	-4.4	.	-2	6	-0.4
CCOc1ccc(NC(=O)Nc2cccs2)cc1	19%	.	0.5	0.65	.	16	.	.	.
COc1ccc(NC(=O)Nc2cnccn2)cc1OC	1%	i	2.4	0.69	1.4	-26	-1	3	-1.0
Cc1ccc(C2C3=C(CC(C)(C)CC3=O)NC3=C2C(=O)CC(C)(C)C3)o1	-1%	.	-1.3	0.74	.	8	.	.	.
COc1cc(CN2CCCC(CO)(Cc3ccccc3C)C2)cc2c1OCO2 (centres undefined)	-4%	i	-0.9	0.66	2.9	-10	-1	-9	-7.5
CC1CCN(CC(=O)N(C)c2c(N)n(Cc3ccccc3)c(=O)[nH]c2=O)CC1	9%	i	6.0	0.68	-0.4	.	-1	3	-1.3
CC1(C)CNC(=O)c2sc(NC(=O)c3ccccc3)nc2C1	-6%	i	-1.6	0.69	-5.8	-6	11	20	0.8
O=C(Cc1cscn1)c1ccc(O)cc1O	29%	.	0.7	0.73	.	-1	.	.	.
Next part.
SMILES	Vif TR-FRET	FGF22 binding	HNF4A DNA FP	E coli growth	MLL AF4-AF9 inh	ALR H2O2 inh	Ecoli rRNA inh	Ecoli rRNA inh OD600	Ecoli rRNA inh RFP
Cc1ccc(-c2nn(-c3ccccn3)c(=O)c3ccccc23)cc1C	.	i	0.1	0.65	-14	1	-14	-11	6.8
O=C(N1CCCCCC1)N1CCN(S(=O)(=O)c2cccc([N+](=O)[O-])c2)CC1	.	i	4.2	0.64	-1.3	.	3	3	-0.6
COC(=O)COc1ccc2c(=O)c(Oc3ccccc3)c(C)oc2c1	19%	.	3.3	0.69	.	-6	.	.	.
N#C[C@H]1[C@@H](c2ccc(-c3ccncc3)cc2)[C@@H](CO)N1C(=O)C1CCC1	.	i	.	.	-2.6	.	1	-2	-1.0
Cc1ccc(S(=O)(=O)N2CCC(C(=O)Nc3ccc(S(=O)(=O)N4CCCC4)cc3)CC2)cc1	-4%	i	-2.5	0.61	-42	-3	1	5	-0.6
O=C(C[C@@H]1C[C@@H]2c3cc(NC(=O)C4CCC4)ccc3O[C@@H]2[C@@H](CO)O1)NCc1ccccn1	.	i	.	.	-0.7	.	-1	2	-3.4
Nc1nc2c(nc(SCc3ccccc3Br)n2C2OC(CO)C(O)C2O)c(=O)[nH]1 (centres undefined)	-1%	i	1.0	0.76	-0.1	86*	13	-2	-0.5
COC(=O)c1ccc(CN(c2ccc(OC)cc2)S(=O)(=O)c2ccccc2)cc1	.	i	3.1	0.68	-1.8	-5	1	9	-0.2
COCCNC(=O)/C(C#N)=C1\N=C(NC(=O)c2ccco2)c2ccccc21	1%	i	7.5	.	1.0	.	2	1	-4.0
Cc1nn(C)c(Cl)c1S(=O)(=O)N1CCC(CO)(CCc2ccccc2)CC1	-3%	i	1.8	0.65	-0.8	2	-21	-20	0.4
Cc1cccc(C2c3[nH]c4ccccc4c3CCN2C(=O)c2ccc(=O)[nH]c2)n1 (centres undefined)	-4%	i	2.8	0.67	2.9	0	10	2	-0.7
COCC#Cc1ccc([C@H]2[C@H]3CN(S(=O)(=O)c4ccccc4F)CCCCN3[C@H]2CO)cc1	.	i	.	.	-3.1	.	-1	-4	-2.0
Cc1cc(C)cc(NC(=O)N2CCNC(=O)C2CC(=O)Nc2cc(Cl)ccc2Cl)c1 (centres undefined)	.	i	-4.8	0.7	-2.1	0	1	3	-0.3
O=C(Nc1cccc(S(=O)(=O)N2CCOCC2)c1)C1CCCN(C(=O)c2ccc(Cl)cc2)C1 (centres undefined)	.	i	1.5	0.69	8.3	.	-12	-6	-1.3
COCCCNC(=O)c1c(N)n(-c2ccc(S(N)(=O)=O)cc2)c2nc3ccccc3nc12	-9%	i	-1.9	.	0.6	0	2	-5	4.9
CN(C)C(/C=C/Nc1ccc(C#N)cc1)=C(C#N)C#N	-3%	.	-0.1	0.7	.	-3	.	.	.
C[C@@H]1CN([C@@H](C)CO)C(=O)c2cccc(NS(C)(=O)=O)c2O[C@H]1CN(C)Cc1ccc(C(=O)Nc2ccccc2N)cc1	.	i	.	.	5.9	.	-1	7	0.3
O=C(O)CC(NS(=O)(=O)c1c(F)cc(F)cc1Br)c1ccccc1Cl (centres undefined)	-1%	i	-3.4	0.73	-7.4	0	3	0	5.4
CC(NC(=O)CNC(=O)c1sc2ccccc2c1Cl)c1cccnc1 (centres undefined)	.	i	1.6	0.65	-13	0	-12	-24	-0.6
COC(=O)/C=C/C(=O)N1CCN(c2ccccc2)CC1	-4%	i	-2.5	0.63	-3.8	97*	4	14	1.3
O=C(c1ccc(-c2cccc(C(F)(F)F)c2)o1)N1CCOCC1	1%	.	-1.2	0.7	.	23	.	.	.
O=C(C[C@H]1CC[C@@H](NS(=O)(=O)c2ccccc2)[C@H](CO)O1)NCc1ccncn1	.	i	.	.	2.1	.	2	-1	-3.0
CC(=O)c1sc(NC(=O)COc2ccc(Cl)cc2Cl)nc1C	-3%	i	5.4	0.71	-2.8	.	4	6	-2.8
COc1ccc(NC(=O)Nc2ccc3c(c2)C(=O)N([C@H](C)CO)C[C@@H](C)[C@@H](CN(C)S(C)(=O)=O)O3)cc1	.	i	.	.	-4.2	.	2	12	-0.4
CCOC(=O)Nc1ccc2c(c1)C(=NNC(=S)NC)c1ccccc1-2	-6%	i	-0.5	.	-0.9	.	.	.	.
Additional records.
SMILES	Vif TR-FRET	FGF22 binding	HNF4A DNA FP	E coli growth	MLL AF4-AF9 inh	ALR H2O2 inh	Ecoli rRNA inh	Ecoli rRNA inh OD600	Ecoli rRNA inh RFP
CCSc1nc2c(c(=O)n1CC)SC(C)C2 (centres undefined)	3%	.	1.2	0.67	.	1	.	.	.
Nc1ncc(-n2cncn2)c(-c2ccc(Cl)cc2)n1	-4%	i	-0.7	0.72	-0.7	4	6	7	0.4
O=C(OCc1ccc(COC(=O)c2ccccn2)cc1)c1ccccn1	29%	.	-1.0	0.73	.	1	.	.	.
COc1ccc(CCNC2=CC(=O)N(c3ccc(F)cc3)C2=O)cc1	0%	.	-1.4	0.73	-1.2	-1	9	14	3.2
C#CCOc1coc(COC(=O)c2ccccc2)cc1=O	.	i	0.8	0.63	-3.6	-4	1	11	-2.6
COC(=O)C1CCN(C(=O)c2ccc(Cl)c(S(=O)(=O)NCc3ccco3)c2)CC1	.	i	-2.3	0.71	-0.2	6	-4	7	-2.1
CCOc1ccc2nc(N(Cc3ccccc3)C(=O)CCNC(C)=O)sc2c1	1%	i	3.5	0.69	-3.1	-19	-9	-3	2.5
Cc1ccc(C(=O)Nc2ccc(O)cc2C(=O)O)cc1C	22%	i	-5.2	0.64	14	98*	-25*	-6.5*	1.7*
NC(=O)c1ccc(C2SCC(=O)N2Cc2ccccc2)cc1 (centres undefined)	2%	.	-1.6	0.67	.	11	.	.	.
COc1ccc(-c2noc(C3CCCN(C(=O)c4cccs4)C3)n2)cc1 (centres undefined)	?	i	-1.3	0.67	5.6	-8	-50	-69	-24
CN1CCN(S(=O)(=O)c2ccc(=O)[nH]c2)CC1	-1%	.	1.1	0.73	.	5	.	.	.
COc1ccc(C)cc1Nc1n[n+](-c2ccccc2)c(-c2cc(OC)c(OC)cc2Br)s1	.	i	3.2	.	15	.	-3	-16	-2.4
Cc1cc(C)n(CCCNC(=O)C(C)(C)Oc2ccc(Cl)cc2)n1	1%	i	-1.9	0.68	0.6	2	-5	0	-0.9
CSC(=NNC(=O)c1ccccc1O)SC	6%	.	-0.3	.	.	70	.	.	.

Compounds from the list above with a COOH group (3):
SMILES	Vif TR-FRET	FGF22 binding	HNF4A DNA FP	E coli growth	MLL AF4-AF9 inh	ALR H2O2 inh	Ecoli rRNA inh	Ecoli rRNA inh OD600	Ecoli rRNA inh RFP
CC1(C(=O)O)CCC(C(=O)N2CCOCC2)C1(C)C (centres undefined)	-1%	.	-0.1	0.72	.	-2	.	.	.
O=C(O)CC(NS(=O)(=O)c1c(F)cc(F)cc1Br)c1ccccc1Cl (centres undefined)	-1%	i	-3.4	0.73	-7.4	0	3	0	5.4
Cc1ccc(C(=O)Nc2ccc(O)cc2C(=O)O)cc1C	22%	i	-5.2	0.64	14	98*	-25*	-6.5*	1.7*
